Mtb betalactam = beta-lactam sensitization of Mtb H37Rv | inhibition, % at 25 µM | actives 0.27% (n = 330,000) | AID 434955 | M. tuberculosis H37Rv growth with meropenem, percent inhibition; hits of this screen are not shown here;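 active means about 74% or more and at least 40 points above the plate without the antibiotic, then above 30% in a dose series; inconclusive means first-round hits that could not be retested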;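 further: growth measured after seven days incubation then overnight dye step; 0% = bacteria only wells and 100% = bacteria with antibiotic; twin plates without the antibiotic show which effects depend on it; some results filed as inactive read as strong as hits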
* marks the source's active call; other numbers are inactive results; ? = inconclusive. Some of the compounds tested; the hit share may differ from the screen's.

SMILES,Mtb betalactam
CCOC(=O)c1ccccc1NC(=O)CSc1nc2ccccc2c(=O)n1CCCN1CCOCC1,56
NC(=O)C1CCN(C(=O)C(Cc2ccccc2)NC(=O)c2ccccc2)CC1 (stereo not drawn),-7
CCn1c(N)c(C(=O)COC(=O)CCc2nc3ccccc3c(=O)[nH]2)c(=O)[nH]c1=O,-1
COc1ccc(CN(C)C(=O)c2ccc(NS(=O)(=O)c3ccc4[nH]c(=O)[nH]c4c3)cc2)c(OC)c1OC,-6
C=CC(COCc1ccccc1)N([C@@H](Cc1ccccc1)C(=O)OC)S(=O)(=O)c1ccccc1Br (stereo partly drawn),-5
COc1cccc(CNC(=O)c2cc(=O)[nH]c3ccc(S(=O)(=O)N4CCOCC4)cc23)c1,-5
O=C(c1ccncc1)N1CCN(S(=O)(=O)c2ccccc2F)CC1,-9
CC(=O)OCC(=O)[C@H]1CC[C@H]2[C@@H]3CC[C@H]4C[C@H](O)CC[C@]4(C)[C@H]3C(=O)C[C@]12C,-6
CCOc1ccc(CNn2cnnc2)cc1,-11
Cc1cc(C(=O)OCC(=O)NC2CC2)ccc1[N+](=O)[O-],-4
CN(Cc1ccc(OC(F)F)cc1)C(=O)C1CCN(S(=O)(=O)c2ccc3c(c2)OCCO3)CC1,-2
Cc1cccc(-n2c(C)c(-c3ccccc3)[nH]c2=S)c1,-4
O=S(=O)(NCc1ccccc1)c1ccc(NC(=S)NCc2ccco2)cc1,-1
CSc1ncccc1C(=O)OCC(=O)NC1CCC(C)CC1 (stereo not drawn),-5
O=[N+]([O-])c1cc(S(=O)(=O)NCCc2ccccn2)ccc1Cl,96
COc1ccc(CCNC(=O)COC(=O)c2ncc(Cl)c(Cl)c2Cl)cc1OC,-3
COc1cc(Cl)ccc1OCc1cc(C(=O)NC(C)Cc2cnccn2)no1 (stereo not drawn),?
Cc1ccccc1N(CC(=O)NCc1ccccc1)C(=O)CCC(=O)Nc1nccs1,-1
O=C(COC(=O)Cn1cnc2ccccc21)Nc1ccc(F)c(F)c1,-6
CC12CC3CC(C1)CC(C(=O)NNC(=O)c1ccncc1)(C3)C2,-4
CC(=O)Nc1ccc(C(=O)OCC(=O)N(c2ccccc2)C2CCCCC2)cc1,32
O=C(NNC(=O)c1ccc2c(=O)n3c(nc2c1)CCC3)c1ccc(Cl)cc1,-3
COc1ccc(NC(=O)C(C)(C)Oc2ccc(Cl)cc2)cn1,3
COC(=O)c1ccc(OCCCCN(C)Cc2ccccc2)cc1,-5
CCN(CC(=O)Nc1ccc(NC(C)=O)cc1)C(=O)c1ccc(N2CCC(C)CC2)c([N+](=O)[O-])c1,-1

Overlap with the part before: 3 compounds; new compounds follow.
SMILES,Mtb betalactam
COc1ccc(NC(=O)C(C)(C)Oc2ccc(Cl)cc2)cn1,3
COC(=O)c1ccc(OCCCCN(C)Cc2ccccc2)cc1,-5
CCN(CC(=O)Nc1ccc(NC(C)=O)cc1)C(=O)c1ccc(N2CCC(C)CC2)c([N+](=O)[O-])c1,-1
CCC(C)(O)C(=O)N[C@H]1CCCN1C(=O)/C=C/c1ccccc1 (stereo partly drawn),-3
O=C(Cc1c(F)cccc1Cl)NNC(=O)c1ccc(Br)s1,-4
CC1CCCCC12NC(=O)N(CC(=O)N1CCN(S(=O)(=O)Cc3ccccc3)CC1)C2=O (stereo not drawn),2
Cc1ccc(C(=O)Nc2nc3ccccc3[nH]2)cc1,97
O=C(COC(=O)CN1CCSC1=O)Nc1ccc(F)cc1Cl,4
Cc1ccc(SCC(=O)N(C)C2CCS(=O)(=O)C2)c(C)c1 (stereo not drawn),-4
COc1ccccc1-c1cc(C(=O)N/N=C/c2ccoc2)c2ccccc2n1,?
COc1ccc(S(=O)(=O)N2CCN(CC(=O)NCC3(N4CCOCC4)CCCCC3)CC2)cc1,4
Cc1ccc(C(=O)OCC(=O)Nc2cccc(S(=O)(=O)N3CCOCC3)c2)o1,-10
CC1(C)C(=O)Nc2ccccc2N1C(=O)COc1ccccc1C#N,-1
C/C(CC(=O)Nc1ccc2c(c1)OCCO2)=N\NC(=O)c1ccccc1F,96
CCOC(=O)[C@H]1[C@H]2COc3ccc(C)cc3[C@@H]2N2C(=O)c3cc(OC)c(OC)cc3NC(=O)[C@@]12C,1
COc1ccc(CCC2(C)NC(=O)N(C(C)C(=O)Nc3ccccc3F)C2=O)cc1 (stereo not drawn),1
Cc1cccc(N(Cc2ccccc2)C(=O)CN2C(=O)NC3(CCCCC3C)C2=O)c1 (stereo not drawn),-1
C/C(=N/NC(=O)c1cc2ccccc2cc1O)c1ccco1,86
Cc1ccc(S(=O)(=O)N(C)C)cc1NC(=O)C(C)OC(=O)C1CCC1 (stereo not drawn),3
CCN(C(=O)CSc1cccc[n+]1[O-])C1CCCCC1,-2
Cc1cc(OCC(=O)N[C@H](C(=O)O)c2ccccc2)c2c3c(c(=O)oc2c1)CCC3,-7
CCSc1nc(-c2ccccc2)cc(=O)[nH]1,-8
COc1ccccc1C(=O)NS(=O)(=O)c1ccc(C)cc1,-4
CC1CCCC(NC(=O)COC(=O)c2ccc(Cl)nc2)C1C (stereo not drawn),2
CS(=O)(=O)N1CCN(C(=O)c2ccc3c(c2)OCCO3)CC1,0
Cc1ccc(CN2CC(=O)N3[C@H]4c5ccccc5OC[C@@H]4[C@H](c4ccccc4)[C@]3(C)C2=O)cc1,35
COc1ccc(NC(=O)c2cc(-c3ccco3)nc3ccccc23)cn1,-1
CCOc1ccccc1NC(=O)C1CCCN1S(=O)(=O)c1ccccc1C(F)(F)F (stereo not drawn),0

6 entries out of the list, ordered by count of non-hydrogen atoms, low to high.
SMILES,Mtb betalactam
CCN(C(=O)CSc1cccc[n+]1[O-])C1CCCCC1,-2
CC1CCCC(NC(=O)COC(=O)c2ccc(Cl)nc2)C1C (stereo not drawn),2
CC1(C)C(=O)Nc2ccccc2N1C(=O)COc1ccccc1C#N,-1
Cc1ccc(C(=O)OCC(=O)Nc2cccc(S(=O)(=O)N3CCOCC3)c2)o1,-10
CCOc1ccccc1NC(=O)C1CCCN1S(=O)(=O)c1ccccc1C(F)(F)F (stereo not drawn),0
CCOC(=O)[C@H]1[C@H]2COc3ccc(C)cc3[C@@H]2N2C(=O)c3cc(OC)c(OC)cc3NC(=O)[C@@]12C,1

New compounds follow
SMILES,Mtb betalactam
O=C(COC(=O)CNC(=O)c1ccc(Cl)c([N+](=O)[O-])c1)NNC(=O)c1ccccc1F,2
CCOC(=O)[C@H]1[C@H]2COc3ccc(Cl)cc3[C@@H]2N2C(=O)CN(Cc3ccc(Cl)cc3)C(=O)[C@@]12C,-7
CC(C)(C)OC(=O)N1CCC(NC(=O)c2nc[nH]c2C(=O)NCc2ccccc2)CC1,86
N#Cc1ccccc1S(=O)(=O)N1CCN(C(=O)CCc2ccccc2)CC1,-1
CCc1ccc(NC(=O)COC(=O)CCC2CCCC2)cc1,79
Cc1cccc(OCC(=O)OCC(=O)Nc2sccc2C(N)=O)c1,2
O=C1N[C@@H](c2ccccc2)COC(=O)[C@@H](Cc2ccc(F)cc2)C/C=C\C[C@H]1CC(=O)N(CCO)Cc1ccccc1,-8
Cc1ccc(C)c(SCC(=O)Nc2ccc(C)c(S(=O)(=O)N3CCOCC3)c2)c1,-3
COc1ccc(N2C(=NC(=O)c3ccc(Br)cc3)SC3CS(=O)(=O)CC32)cc1 (stereo not drawn),-1
Cc1cc(NC(=O)CSc2nccn2-c2cccc(F)c2)no1,-4
O=C(COc1ccccc1Br)N1CCN(C(=O)c2cccs2)CC1,-4
Cc1cc(C(=O)CN2C(=O)c3ccccc3S2(=O)=O)c(C)n1C(C)C,-4
Cc1cc(NC(=O)CN(C)CC(=O)Nc2ccc(Cl)c(C(F)(F)F)c2)no1,-11
CC1CCN(C(=O)Cn2cc([N+](=O)[O-])ccc2=O)c2ccccc2S1 (stereo not drawn),51
CC(C)(C)OC(=O)C[C@@H]1C/C=C\C[C@H](CC(=O)N[C@@H](CO)Cc2ccccc2)C(=O)N[C@H](C(C)(C)C)COC1=O,-4
Cc1ccc(C)c(C(=O)C(C)OC(=O)CN2C(=O)NC3(CC(C)CC(C)(C)C3)C2=O)c1 (stereo not drawn),-3
COc1ccc(O)c(C(=O)c2cnn(S(=O)(=O)c3ccc(C)cc3)c2)c1,-6
COc1ccc(NS(=O)(=O)c2cc([N+](=O)[O-])ccc2NN=Cc2ccccc2OCC(=O)O)cc1,-3
Cc1cc(C)cc(OCC(=O)Nc2ccc(-n3cnnn3)cc2)c1,-4
COc1ccc(N2CCN(C(=O)c3cc4c(s3)CCCCC4)CC2)cc1,2
O=C1CN(C(=O)COC(=O)CCS(=O)(=O)c2ccccc2Cl)c2ccccc2N1,-1
COc1ccc2cc([C@@H](C)C(=O)O)ccc2c1,0
Cc1ccc(OCc2cc(C(=O)NCC(C)c3ccccc3)no2)cc1C (stereo not drawn),?
COc1ccc(Cl)cc1C(=O)NNC(=O)CCNS(=O)(=O)c1ccccc1,-7
CC1CCCCC12NC(=O)N(CC(=O)NCCc1ccccc1)C2=O (stereo not drawn),-1
CC(=O)Nc1ccc(SCCN2CC[C@@H](C(C)(C)C)CCC2=O)cc1,2
COc1ccc(CCNC(=O)COc2ccc3c(c2)OCO3)cc1,8
CCCCN(Cc1nc2ccccc2c(=O)[nH]1)C(=O)COc1ccc(F)cc1Cl,23
COc1cccc(Nc2nn3c(=O)c4ccccc4nc3s2)c1,8
CCOc1ccccc1C(C(=O)NC1CCCCC1)N(C(=O)c1csnn1)C1CC1 (stereo not drawn),-2
CCCOc1cc(N)ccc1C(=O)OCCN(CC)CC,-1
O=C(O)c1ccc(Cl)c(S(=O)(=O)Nc2ccccc2C(=O)Nc2ccc(Cl)cc2)c1,0
COc1ccc(NC(=O)Nc2cccc3c2O[C@H](CN(C)S(=O)(=O)c2cccs2)[C@@H](C)CN([C@H](C)CO)C3=O)cc1,8
Cc1cccc(NC(=O)C2CC(=O)N(c3ccc4c(c3)OCCO4)C2)n1 (stereo not drawn),-10
Cc1cn([C@H](C(=O)NCCCCCCCCCCC(=O)N2CCN(C(=O)OC(C)(C)C)CC2)[C@@H](C)O)nn1,-5
O=C(NC1CC1)c1cccc(NC(=O)c2cn3ccccc3n2)c1,-3
COc1ccc(-c2cccc3c2NC(=O)C3=O)cc1OC,1
O=C(Nc1ccc(Oc2ccccc2)nc1)C1CCCCN1Cc1ccc(O)cc1 (stereo not drawn),?
CC[C@@]1(C(=O)OC)N[C@H](CN(C)C(=O)c2ccc(C)cc2)[C@@H]2C(=O)N(Cc3ccccc3)C(=O)[C@@H]21,-5
N#Cc1ccc(S(=O)(=O)N2CCC(C(=O)N3CCN(Cc4ccc5c(c4)OCO5)CC3)CC2)cc1,31
CC1CCC(NC(=O)CN2C(=O)NC3(CCCCCC3)C2=O)CC1 (stereo not drawn),84
CCC[C@@H]1CCCC/C=C\CCCC(=O)OCCN1C(=O)OC(C)(C)C,6
COc1ccc(C(=O)NCc2ccc(C)cc2)cc1S(=O)(=O)N1CCCC1,0
Cn1nc(C(=O)OCC(=O)Nc2ccccc2OC(F)F)c2ccccc2c1=O,0
CCCc1cc(=O)[nH]c(SCC(=O)Nc2sc3c(c2C(N)=O)CCCC3)n1,0
COc1ccc(S(=O)(=O)N(C)C[C@H]2Oc3c(NC(=O)Nc4c(C)noc4C)cccc3C(=O)N([C@H](C)CO)C[C@@H]2C)cc1,-3
COc1cc(OC)cc(C(=O)N[C@H](C(=O)OCC(=O)Nc2ccc3c(c2)OCO3)C(C)C)c1,4
Cc1ccc(S(=O)(=O)N(C)C(C)CCc2ccco2)cc1 (stereo not drawn),-2
CNC(=O)c1ccc(NC(=O)c2cc(S(=O)(=O)N(C)C)ccc2N2CCCC2)cc1,-4
CCOC(=O)N1CCN(S(=O)(=O)c2ccc3c(c2)C(C)C(=O)N3)CC1 (stereo not drawn),-2

The closing 2 entries of the section before open the next one.
SMILES,Mtb betalactam
CNC(=O)c1ccc(NC(=O)c2cc(S(=O)(=O)N(C)C)ccc2N2CCCC2)cc1,-4
CCOC(=O)N1CCN(S(=O)(=O)c2ccc3c(c2)C(C)C(=O)N3)CC1 (stereo not drawn),-2
CC(=O)N1CCN(C(=O)c2ccc(Cl)c(S(=O)(=O)N3CC(C)OC(C)C3)c2)CC1 (stereo not drawn),-6
C[C@@H](CSc1ccc(Br)cc1)CN1CC[C@H](O)CCC1=O,-1
CNS(=O)(=O)c1cccc(C(=O)NNC(=O)c2ccc(COc3ccccc3)cc2)c1,-2
CCCCC[C@@H]1C=C(C(=O)O)[C@H](c2ccc3c(c2)OCO3)N1S(=O)(=O)c1ccc(C)cc1,2
CCN(C[C@H]1N[C@@](CC)(C(=O)OC)[C@H]2C(=O)N(Cc3ccccc3)C(=O)[C@@H]12)C(=O)Nc1ccc(Cl)cc1,-1
O=C(O)C(Br)CBr (stereo not drawn),2
C[C@H](CO)N1C[C@H](C)[C@H](CN(C)C(=O)Nc2cccc3ccccc23)Oc2c(NC(=O)c3ccc(-c4nccs4)cc3)cccc2C1=O,-6
CCOC(=O)C1CCN(C(=O)COC(=O)c2ccc([N+](=O)[O-])o2)CC1,93
CCN(C[C@H]1N[C@@](CC)(C(=O)OC)[C@H]2C(=O)N(Cc3ccccc3)C(=O)[C@@H]12)S(=O)(=O)c1ccc(C(C)(C)C)cc1,-15
O=C(Nc1cccc(S(=O)(=O)N2CCOCC2)c1)c1ccc(N2CCCC2=O)cc1,12
Cc1sc2ncnc(N3CCN(S(=O)(=O)c4ccccc4)CC3)c2c1C,-2

Bioassay records from PubChem BioAssay.
